Vaccinia mCherry: inhibitors of vaccinia virus infection (mCherry reporter signal). Vaccinia virus mCherry reporter infection, fluorescence; about a quarter of the inactives have no number. Potency, µM (top dose mostly 36.5 µM), without a hit: top-dose activity change, negative = inhibition, most hits filed as inhibitors. 0.63% of 310,000 active. AID 720579; active = well fitted inhibition curve with a large enough effect; inconclusive = small, poorly fitted or top-dose-only effect; inactive = no such curve, though single readings can be large or run the other way; tested in A549 cells; note: nearly all actives have a fitted effect of over 35% in size; inactives centre near -10
Vaccinia Venus: inhibitors of vaccinia virus (Venus reporter). Vaccinia virus Venus reporter expression, fluorescence. Potency, µM (doses to about 36.5 µM), without a hit: top-dose activity change, negative = inhibition, actives largely listed as inhibitors. 0.46% of 330,000 active. AID 720580; active means well fitted inhibition curve with a large enough effect; inconclusive means small, poorly fitted or top-dose-only effect; inactive means no such curve, though single readings can be large or run the other way; tested in A549 cells; note: nearly all actives have a fitted effect of over 30% in size; inactives centre near -10
* = called active by the depositor; i = inactive; ? = inconclusive; · = no result given; [ ] = remark or other dose. % is set by controls: 0 for no effect and ±100 for the full control effect; potency is the fitted concentration of half-maximal effect.

SMILES	Vaccinia mCherry	Vaccinia Venus
O=[N+]([O-])c1cc2ccccc2nc1-c1ccccc1	-14%	-3%
CC(=O)Nc1ccc(SCC(=O)Nc2ccccc2-c2ccccc2)cc1	i	-12%
c1ccc(-c2nnc(C(c3ccccc3)c3ccccc3)o2)cc1	-14%	-1%
N#Cc1cc2c(nc1SCc1ccc(Cl)cc1)CCCC2	-12%	2%
CCN(C[C@H]1N[C@@](C)(C(=O)OC)[C@H]2C(=O)N(C)C(=O)[C@@H]12)C(=O)Nc1ccc(OC)cc1	-17%	-8%
O=C(CCC(=O)c1cccs1)NC(c1ccccc1)c1ccccc1	i	-12%
Cc1ccccc1-c1csc(C(C)(O)c2ccccc2)n1 (stereo not drawn)	-7%	8%
CC(C)(C)c1ccc(-c2noc(CCC(=O)NCc3ccco3)n2)cc1	0%	?
CCN(CC)S(=O)(=O)c1cc(C(=O)O)ccc1OC	i	3%
O=C(CCCc1ccccc1)NCc1ccccc1Cl	i	-10%
c1ccc(CCc2cccnc2)cc1	-11%	-8%
COCC(=O)N(C)C[C@H]1N[C@@](C)(C(=O)OC)[C@H]2C(=O)N(Cc3ccccc3)C(=O)[C@@H]12	-14%	0%
CCOc1ccc(C(C)=O)cc1COc1ccc(C)nc1[N+](=O)[O-]	-10%	5%
CN1CCN(Cc2nc3c(c(=O)[nH]c(=O)n3C)n2CCc2ccccc2)CC1	i	2%
CCCc1nn2cc(-c3ccc(C)c(C)c3)nc2s1	2%	-6%

SMILES	Vaccinia mCherry	Vaccinia Venus
CC(C)CNC(=O)NC(=O)CSc1nc2ccccc2n1CC(C)C	·	-25%
COc1ccc(-c2ccc3n2Cc2cnnn2-c2ccccc2-3)cc1	3%	0%
Cn1ccsc1=NC(=O)c1ccc(S(C)(=O)=O)c([N+](=O)[O-])c1	i	-12%
CC(=O)N1CCN(C(=O)c2ccc(-c3cccc(C(F)(F)F)c3)o2)CC1	-5%	-11%
NC(=O)c1ccc(C(F)(F)F)cn1	-13%	-20%
CCCCNC(=O)CSc1nc2cc3c(cc2c(=O)n1Cc1ccco1)OCO3	-1%	5%
O=C1CC(c2cccc(O)c2)c2cc3c(cc2N1)OCO3 (stereo not drawn)	1%	-10%
COc1cc(S(N)(=O)=O)c(OC)cc1N	-12%	-17%
CCOc1ccccc1-c1cc(C(=O)N/N=C(\C)c2cccnc2)c2ccccc2n1	-2%	-18%
O=C(NN1C(=O)/C(=C/c2cccs2)SC1=S)c1ccccc1	i	-13%
O=C(CSc1ccccc1)NCCCN1CCOCC1	·	-11%
Cc1ccc(C(C)C)c(OCC(=O)N2CCN(c3ncccn3)CC2)c1	-7%	-13%
COc1cc(NC(=O)CSc2nc3nc(C)c(Cc4ccc(C)cc4)c(C)n3n2)cc(OC)c1OC	-18%	-11%
Oc1[nH]c2ccccc2c1C1=NCCCCC1	-3%	-7%
CC(C)C1Nc2ccc(C(=O)N3CCN(c4ccccn4)CC3)cc2NC1=O (stereo not drawn)	?	-27%

SMILES	Vaccinia mCherry	Vaccinia Venus
O=c1[nH]nc(SCc2cc(Cl)ccc2Cl)c(=O)[nH]1	-6%	-4%
Cc1ccc(CSc2nnc(-c3ccccc3N)c(=O)[nH]2)cc1	-13%	-12%
CC(=O)NS(=O)(=O)c1ccc2sc(C)nc2c1	i	-6%
COc1ccccc1NC(=O)Nc1nnc([C@H]2C[C@H](O)[C@@H](CO)O2)s1	0%	0%
O=C(N/N=C/c1ccc(Br)cc1)c1cc[n+]([O-])cc1	-3%	-22%
c1cc2c(cc1CN1CCOCC1)OCO2	-12%	-5%
CCCCc1c(-c2ccc(OC)cc2)ncn1CCc1ccccc1OC	?	?
Cc1ccc(NC(=O)CSC(N)=O)cc1Cl	-16%	-10%
CCCCNC(=O)c1ccccc1SCc1c(C)noc1C	i	-19%
Cc1ccc(-n2c(=O)c3c(c4cc(C)ccc4n3C)n(CC(=O)Nc3ccc(F)cc3)c2=O)cc1	-24%	-20%
O=C(NCCc1ccccc1)[C@@H]1CC=C[C@@H]2CCN(C3CC3)C(=O)[C@@H]21	-14%	-27%
CC1CC(C)CN(c2nc(NCc3ccco3)nc(N)c2[N+](=O)[O-])C1 (stereo not drawn)	-1%	-14%
O=C(Cn1c(=O)oc2cc(S(=O)(=O)N3CCCC3)ccc21)NCc1ccccn1	i	-5%
Cc1ccc(NC(=O)C(=O)NCCc2csc3nc(-c4ccccc4C)nn23)cc1Cl	-1%	13%
O=C(NC(=S)Nc1ccc(Br)cn1)c1cccnc1	4%	10%

Part of the list above in order of number of heavy atoms, rising:
SMILES	Vaccinia mCherry	Vaccinia Venus
O=C(NC(=S)Nc1ccc(Br)cn1)c1cccnc1	4%	10%
CCCCNC(=O)c1ccccc1SCc1c(C)noc1C	i	-19%
Cc1ccc(CSc2nnc(-c3ccccc3N)c(=O)[nH]2)cc1	-13%	-12%
COc1ccccc1NC(=O)Nc1nnc([C@H]2C[C@H](O)[C@@H](CO)O2)s1	0%	0%
Cc1ccc(NC(=O)C(=O)NCCc2csc3nc(-c4ccccc4C)nn23)cc1Cl	-1%	13%

(continued)
SMILES	Vaccinia mCherry	Vaccinia Venus
Cc1ccc2cc(CCNC(=O)CC(C)(C)C)c(=O)[nH]c2c1C	i	-14%
O=C(Nc1c(C(=O)Nc2ccc(F)cc2)oc2ccccc12)c1ccccc1F	-18%	-15%
CCc1ccccc1N1C(=O)CC(=O)NC1=O	i	-1%
CCOC(=O)[C@]12CCC=C1N(Cc1ccc3c(c1)OCO3)C(=O)[C@H](CC(=O)NCC1CCCCC1)C2	-20%	-11%
CCOc1ccc(C(CCc2ccccc2)NC(=O)c2ccccc2)cc1OCC (stereo not drawn)	-13%	-7%
Cc1ccc(NC(=O)c2ccc(CSc3nnc(-c4ccncc4)n3C)cc2)cc1	·	-9%
O=C(NCCc1nnc2ccc(NCCCN3CCOCC3)nn12)c1ccccc1F	i	-4%
CCOC(=O)CSc1nnc(-c2ccco2)n1-c1ccccc1	i	-9%
CCOc1ccc(-c2nc(CNC(=O)NC3CCCCC3)c(C)o2)cc1	-6%	-2%
COc1ccc2c(COC(=O)CC3Sc4ccccc4NC3=O)cc(=O)oc2c1 (stereo not drawn)	-10%	15%
COCCNc1nc2cc(-c3ccccc3)sc2c(=O)n1C	-29%	-16%
CCOC(=O)c1cnc(N2CC2)nc1N	i	15%
N#Cc1ccc(C(=O)NCc2ccc3c(c2)CCN3C(=O)c2ccc(F)cc2)cc1	i	-9%
CSc1ccccc1NC(=O)Nc1cccc(Cl)c1C	-13%	-14%
COc1ccc(/C=N\NC(=O)c2ccccc2Br)cc1COc1ccc(F)cc1	i	-5%

SMILES	Vaccinia mCherry	Vaccinia Venus
Cc1nc(C(=O)NCCC(C)C)sc1C1(C)CC(c2cccc([N+](=O)[O-])c2)=NO1 (stereo not drawn)	-23%	-13%
CCc1ccc(S(=O)(=O)Nc2cccc(-c3ccc(N4CCC(C)CC4)nn3)c2)s1	-24%	-19%
CCOC(=O)C1(C)CCN1C(=O)c1cc(F)cc(F)c1 (stereo not drawn)	32%[activator]	-1%
CCN(CC)C(=O)C1CCCN(C(=O)c2oc3ccc(C)cc3c2C)C1 (stereo not drawn)	-21%	-19%
CCN(CC)C(=O)c1cc2c(=O)c3cc(F)ccc3oc2nc1C	-13%	-6%
Cc1c(OC(C)C(=O)O)ccc2c3c(c(=O)oc12)CCCC3 (stereo not drawn)	i	-15%
CCOC(=O)C1(C)CCCN(C(=O)c2ccc(OC)cc2OC)C1 (stereo not drawn)	8%	-6%
CC(=O)c1ccc(OCC(O)CN2CCN(c3ccc(F)cc3)CC2)cc1 (stereo not drawn)	-24%	-2%
O=C(CC1SC(=NCc2ccccc2)NC1=O)Nc1ccccc1 (stereo not drawn)	-15%	-12%
O=C(O)c1ccc(/C=N/Nc2ccc(S(=O)(=O)N3CCCC3)cc2[N+](=O)[O-])cc1	-16%	-11%
COc1ccc(CNC(=O)C2CCCC2)cc1	-6%	1%
CCOC(=O)c1cc2c(=O)n3ccccc3nc2n(CCCOC)c1=NC(=O)c1c(-c2c(F)cccc2Cl)noc1C	-7%	-10%
O=C(Nc1ccc(C(=O)O)cc1)/C(=C\c1ccco1)NC(=O)c1ccccc1	-11%	-6%
CC(C)Cc1nc(S(=O)(=O)c2ccc(Cl)cc2)c(N2CCOCC2)o1	·	2%
Cc1sc2nc(CSc3ncn[nH]3)[nH]c(=O)c2c1C	-7%	-10%

SMILES	Vaccinia mCherry	Vaccinia Venus
CC(C)OCCCNc1ncnc2c1[nH]c1ccc(F)cc12	·	?
COc1ccccc1CN1CCCC(n2cc(C(=O)N3CCCCC3)nn2)C1 (stereo not drawn)	-6%	-8%
CCOC(=O)c1cnc(-c2ccccc2)nc1N1CCOCC1	-8%	1%
CCOC(=O)N1CCC(NC(=O)c2ccc(CS(=O)(=O)c3ccccc3C)o2)CC1	21%	-3%
O=C(CN1Cc2ccccc2OC(c2ccccc2)C1)N1CCCCC1c1cccnc1 (stereo not drawn)	-15%	-8%
O=C(CCc1ccccc1)Nc1cc(C(F)(F)F)ccc1Cl	-9%	-5%
CC(=O)c1c(C)[nH]c(C(=O)NCc2ccc(Cl)cc2)c1C	-12%	-24%
CN(CCCC(=O)N1CCCC(C(N)=O)C1)S(=O)(=O)c1ccc(F)cc1 (stereo not drawn)	-14%	5%
CCOc1ccccc1NC(=O)CCN1CCN(S(=O)(=O)c2ccc(OC)cc2)CC1	·	?
COc1ccccc1N(CC(=O)NCc1ccc(F)cc1)C(=O)CCC(=O)Nc1ccccn1	-10%	-1%
CC(C)CCNC(=O)C1CCCN(S(=O)(=O)c2ccc3c(c2)CC(C)N3C(=O)C2CC2)C1 (stereo not drawn)	12%[7.34 µM]	0%[7.34 µM]
CCc1ccc(NC(=O)C(=O)NCC2CCCN2S(=O)(=O)c2cccs2)cc1 (stereo not drawn)	-10%	-20%
CCn1c(=O)c(=O)n(CC)c2cc(N3CCCCC3)c(NC(=O)c3ccc(Cl)cc3)cc21	i	-5%
CCOC(=O)Cn1nnnc1C(CC)N(Cc1cc2ccc(C)cc2[nH]c1=O)C1CCCC1 (stereo not drawn)	·	?
COC(=O)C(Cc1cnc(Cl)s1)(C(=O)OC)c1ccc(C(F)(F)F)cc1[N+](=O)[O-]	-12%	-2%

SMILES	Vaccinia mCherry	Vaccinia Venus
Cc1cc(C)c(C(N)=O)c(Nc2ccc(F)cc2)n1	-13%	-3%
CC1CCN(C(=O)COC(=O)c2ccccc2NC(=O)c2ccco2)CC1	-1%	-9%
Cc1cccc(COCC(Cc2ccccc2)N2CCN(C(=O)c3cc(Cl)cc(Cl)c3)CCC2=O)c1 (stereo not drawn)	?	?
Cc1cccc(NC(=S)N(C)C2CCCCC2)c1	-14%	9%
Cc1cc(C)cc(OC(=O)c2cc(-c3ccc(Cl)cc3)on2)c1	i	2%
Cc1cc(Cl)ccc1OCc1nc(-c2ccc(-n3cccc3)cc2)no1	-19%	-20%
COc1ccc(C)cc1NC(=O)CN(Cc1nnc(-c2ccc(Cl)cc2)o1)C1CCCC1	-29%	-27%
CCN1CCN(C(=O)c2ccc3c(c2)N(Cc2ccc(Cl)cc2)C(=O)c2ccccc2S3(=O)=O)CC1	-14%	-11%
CC1(C)NC(=O)N(CCOCCOc2ccccc2)C1=O	-12%	-15%
Cc1ccc(NC(=O)CSc2nc3[nH]ncc3c(=O)[nH]2)cc1	i	-4%
CCCN(CC(=O)Nc1ccccc1C)C(=O)C1CCN(S(=O)(=O)c2ccccc2C(F)(F)F)CC1	-25%	-14%
O=C(Cn1c(=O)oc2cc(S(=O)(=O)N3CCCC3)ccc21)Nc1ccccc1Br	-10%	-6%
COc1ccc(-c2ccccc2)cc1NCc1ccccc1C	-21%	3%
COc1cc(C2c3c(oc4ccccc4c3=O)C(=O)N2c2nncs2)cc(OC)c1OC (stereo not drawn)	-8%	-3%
Cc1ccc(/C=N/n2c(-c3cccc(Cl)c3)n[nH]c2=S)o1	-1%	-8%

SMILES	Vaccinia mCherry	Vaccinia Venus
COc1ccc(NC(=O)Cc2nnc(SCC(=O)c3ccc(F)cc3)n2C)cc1	-20%	-2%
Cc1ccc(C)c(C2=CSC3=NCCN23)c1	·	1%
CCc1nnc(NC(=O)OCc2ccccc2)s1	-14%	-3%
O=C(NC1CCCC1)C(c1cc2c(cc1[N+](=O)[O-])OCO2)N1CCCC1 (stereo not drawn)	i	-4%
Cc1cc2c(OCC(O)CN3CCCCC3)cccc2[nH]1 (stereo not drawn)	-27%	-5%
COc1ccc(COCC(O)CN(Cc2ccco2)Cc2ccccc2O)cc1 (stereo not drawn)	-4%	-11%
C=CCn1nnnc1SCC(=O)Nc1cccc(C(F)(F)F)c1	i	-10%
CCOC(=O)Cc1csc(NC(=O)CSc2nnc(-c3ccncc3)o2)n1	i	-8%
CCOC(=O)c1sc(NC(=O)c2ccco2)nc1C	i	-8%
Cc1cccc(Cn2cc3c(=O)n(CC(=O)Nc4cccc(C)c4C)nc-3c3cc(F)ccc32)c1	-1%	-3%
COc1ccc(C(=O)N/C(=C/c2cccnc2)C(=O)N2CCOCC2)cc1OC	-10%	-5%
Cc1cc(C)n(-c2ccc(NC(=O)C3CCCCN3Cc3cccc4c3OCO4)cc2)n1 (stereo not drawn)	-20%	?

Outcome played no part in choosing rows. Share with any hit: about 0.86%.
